GALR2 ag = GALR2 receptor agonists, primary screen, cell-based; 140,000 tested, 0.48% active; Galanin receptor type 2 (Homo sapiens), O43603; activation, %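 (tested at 5 µM)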; GALR2-expressing cells, agonist activation read-out; AID 803, 2007;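 active = above mean plus 3 SD of all compounds, about 5% in these data, not always enough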;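 also: 0% = vehicle buffer wells and 100% = reference agonist at full effect; tested in CHO reporter cells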
PKD1 inh = inhibitors of human PKD1 kinase, biochemical, fluorescence polarization | Serine/threonine-protein kinase D1 (Homo sapiens), Q15139 | PKD1 kinase fluorescence polarization assay | inhibition, %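 (about 10 µM by stock and volumes)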 | 200,000 tested, 0.056% active | AID 797, 2007;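 active = inhibition of 50% or more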;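 also: controls were vehicle for no effect and a reference inhibitor for full effect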
Target sequence (Q15139 whole entry, looked up): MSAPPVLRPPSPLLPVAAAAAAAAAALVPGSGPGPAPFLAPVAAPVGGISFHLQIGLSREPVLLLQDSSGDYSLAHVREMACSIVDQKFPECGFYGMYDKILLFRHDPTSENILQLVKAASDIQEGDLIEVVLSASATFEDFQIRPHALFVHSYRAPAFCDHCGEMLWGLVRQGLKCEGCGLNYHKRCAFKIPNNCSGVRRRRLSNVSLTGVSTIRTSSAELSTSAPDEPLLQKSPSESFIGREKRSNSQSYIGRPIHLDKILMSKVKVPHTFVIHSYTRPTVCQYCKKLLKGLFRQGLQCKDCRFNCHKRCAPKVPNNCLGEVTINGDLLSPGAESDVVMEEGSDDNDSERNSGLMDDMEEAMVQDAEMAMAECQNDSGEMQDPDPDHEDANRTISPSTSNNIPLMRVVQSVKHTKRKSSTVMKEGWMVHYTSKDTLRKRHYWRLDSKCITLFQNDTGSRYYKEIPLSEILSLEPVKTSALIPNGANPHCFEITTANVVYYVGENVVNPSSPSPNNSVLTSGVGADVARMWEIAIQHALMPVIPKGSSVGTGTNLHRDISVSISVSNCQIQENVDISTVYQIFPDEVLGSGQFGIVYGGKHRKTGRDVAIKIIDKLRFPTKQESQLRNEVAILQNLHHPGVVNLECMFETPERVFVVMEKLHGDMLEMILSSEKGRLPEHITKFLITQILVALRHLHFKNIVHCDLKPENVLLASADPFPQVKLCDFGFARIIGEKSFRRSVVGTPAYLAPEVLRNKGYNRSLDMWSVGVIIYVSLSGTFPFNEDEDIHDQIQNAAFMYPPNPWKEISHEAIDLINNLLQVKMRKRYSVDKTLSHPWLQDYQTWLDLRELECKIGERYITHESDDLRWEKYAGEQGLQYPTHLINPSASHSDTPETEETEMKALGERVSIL
INS promoter inh = inhibitors of insulin promoter-driven GFP, primary screen, imaging, TRM-6 cells (human fetal islet line), eGFP reporter, cell count; 130,000 tested, 0.9% active; inhibition, % at 2 µM; AID 1273, 2008; reporter expression induced with tamoxifen;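 active = inhibition above the mean plus 3 SD, with well images judged a real hit on visual review, cut at about 60% in these data, passing the limit was not always enough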
HSV replic up = enhancers of HSV replication in host cells, fold increase, host cell viability | 220,000 tested, 0.005% active | HSV replication augmentation in cells | AID 1956, 2009 | maximum fold increase;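 active = peak rise of 1.5-fold or more in the series; tested in PC3 cells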;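 also: first round at 10 µM; read as green reporter fluorescence; hits show the peak of a series up to 25 µM; 1 = signal of infected wells without compound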
RGS16-Gao HTS = modulators of RGS16 binding to Galphao, primary screen, biochemical, human proteins, multiplexed bead flow cytometry. Regulator of G-protein signaling 16 (Homo sapiens) + Guanine nucleotide-binding protein …. bead-based flow cytometry RGS16-Galphao binding, fluorescence; actives lie on both sides. binding response (% of control), % at 10 µM. 220,000 tested, 0.38% active. AID 1441, 2008;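 active = below 25% or above 175%, edge rows of some plates excepted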;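 also: Galphao activated by GDP with aluminum fluoride before binding; 100% = wells without compound and 0% = beads without RGS; some results beyond the cut were filed as inactive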
INS promoter inh cell count = further read-out of INS promoter inh, marked with its call; normalized cell count, %; measured here: cell count, toxicity; reference of the scale not given here;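 cells exposed to compound for 48 h; stained nuclei by imaging scaled within each plate; lower means fewer cells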
HSV replic up primary fold = second read-out of HSV replic up, no call of its own (marks repeat the call); fold increase; compound at 10 µM; measured here: primary screen fold increase 10 uM; tested in PC3 cells;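 GFP signal in the first replicate; 1 = infected wells without compound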
An asterisk follows results filed as active; i = inactive; x = no result given.

SMILES	GALR2 ag	PKD1 inh	INS promoter inh	INS promoter inh cell count	HSV replic up	HSV replic up primary fold	RGS16-Gao HTS
CCC(C)n1c(/C=C/c2ccccc2)nc2ccccc21 (centres undefined)	0.0	-4	66	155	i	1	98
O=C(NCc1ccccc1Cl)c1cc([N+](=O)[O-])ccc1Cl	x	-1	x	x	i	0.67	108
CCOC(=O)c1nn(-c2ccccc2)c(=O)cc1SC1CCCCC1	x	-3	x	x	i	0.95	95
O=C(Nc1ccc(Cl)cc1)c1csc(-c2ccccc2)n1	-1.9	0	0	73	i	0.86	101
COC(=O)c1ccc(CN2CCC(CO)(Cc3ccc(OC)cc3)CC2)cc1	x	-10	x	x	i	0.88	101
COc1ccc(OC)c(S(=O)(=O)NCc2cn3c(C)csc3n2)c1	-1.9	-17	x	x	i	0.92	98
COCCn1c(SCC(=O)Nc2ccc(OC)cc2)nc2c(oc3ccccc32)c1=O	x	-9	-57	45	i	0.99	110
Cc1ccc(C(=O)Nc2ccccc2N2CCCCC2)cc1[N+](=O)[O-]	x	5	x	x	i	0.98	101
N#C/C(=C/c1cccn1-c1cccc(C(=O)O)c1)c1ccc(F)cc1	x	-1	-41	77	i	0.95	100
O=C(OC1CCCCC1)c1ccc(NC(=O)C2CCCCC2)cc1	-1.4	-3	-11	128	i	0.82	80

Ordered by the number under RGS16-Gao HTS (highest first): 5 of the compounds above
Structure | GALR2 ag | PKD1 inh | HSV replic up primary fold | RGS16-Gao HTS
O=C(NCc1ccccc1Cl)c1cc([N+](=O)[O-])ccc1Cl | x | -1 | 0.67 | 108
COC(=O)c1ccc(CN2CCC(CO)(Cc3ccc(OC)cc3)CC2)cc1 | x | -10 | 0.88 | 101
N#C/C(=C/c1cccn1-c1cccc(C(=O)O)c1)c1ccc(F)cc1 | x | -1 | 0.95 | 100
COc1ccc(OC)c(S(=O)(=O)NCc2cn3c(C)csc3n2)c1 | -1.9 | -17 | 0.92 | 98
O=C(OC1CCCCC1)c1ccc(NC(=O)C2CCCCC2)cc1 | -1.4 | -3 | 0.82 | 80

The results go on:
SMILES	GALR2 ag	PKD1 inh	INS promoter inh	INS promoter inh cell count	HSV replic up	HSV replic up primary fold	RGS16-Gao HTS
COc1ccc2[nH]c(=O)c(CN(C(=O)c3cccnc3)c3cc(C)ccc3C)cc2c1	x	x	x	x	i	0.97	102
COc1ccc(S(=O)(=O)CC(O)CN2CCCC2=O)cc1 (centres undefined)	-0.1	-4	18	113	i	0.79	98
COc1ccc(-c2nc(C#N)c(NCCc3ccccc3)o2)cc1OC	-0.8	12	-21	114	i	0.92	104
Cc1sc(NC(=O)CSc2nnnn2C(C)C)c(C#N)c1C	x	x	x	x	i	0.95	92
Cc1sc2nc(CN(C(=O)NCc3ccccc3)C3CCCC3)[nH]c(=O)c2c1C	x	x	x	x	i	0.89	106
O=c1ccn(CCc2c[nH]c3ccccc23)c2c1CCCC2	x	6	x	x	i	1	100
COc1ccc2ccc3c(c2c1)N=CC1(O3)N(C)c2ccccc2C1(C)C (centres undefined)	-3.4	2	9	154	i	0.82	36
COc1cc(S(=O)(=O)N(Cc2ccco2)C2CCCC2)ccc1-n1cnnn1	-2.7	1	65	85	i	0.94	87
O=C(COc1ccccc1Cl)Nc1ccc2c(c1)OCCO2	-1.6	-12	x	x	i	1	103
O=C(NNC(=O)c1ccc(NC(=O)c2ccccc2)cc1)Nc1ccccc1	x	-3	x	x	i	1	99
COc1ccc(-c2cc(C(F)(F)F)nc(SCC(=O)Nc3sc4c(c3C#N)CCC4)n2)cc1	-1.2	5	x	x	i	0.92	98
Cc1cccc(C2CC(c3ccccc3)Nc3nc(N)nn32)c1 (centres undefined)	0.0	-14	x	x	i	1	100
COc1cc(C(C(=O)NC(C)(C)C)N(C(=O)CNC(=O)c2cccs2)c2ccc(C(C)C)cc2)cc(OC)c1OC (centres undefined)	-0.1	0	x	x	i	0.85	102
Cc1ccccc1CCN(C(=O)Cn1nnc2ccccc21)C(C(=O)NCC1CCCO1)c1nc2ccccc2n1C (centres undefined)	0.6	5	-33	89	i	0.87	100
C=CCN(C(=O)CNS(=O)(=O)c1ccccc1)C(C(=O)NCCOC)c1ccncc1 (centres undefined)	-2.0	-5	x	x	i	0.91	114
Cn1cc(Cl)c(C(=O)Nc2nc3ccccc3s2)n1	-0.4	6	5	73	i	0.7	99
O=C(NCC(=O)N(c1ccccc1)C(C(=O)NC1CCCC1)c1cccnc1)c1cccs1 (centres undefined)	-1.9	-7	4	99	i	1	103
Cc1ccc(S(=O)(=O)N2CCN(CC(=O)N/N=C\c3ccc(Cl)c([N+](=O)[O-])c3)CC2)cc1	1.5	-2	12	115	i	0.67	104
Cc1nc2ccc(S(=O)(=O)NCC(=O)N3CCN(c4ccccn4)CC3)cc2s1	-1.4	-12	27	58	i	0.98	108
Cc1ccc(S(=O)(=O)N2CCC(C(=O)NNC(=O)c3cccnc3)CC2)cc1	x	-3	x	x	i	1	105
COc1ccc(CCNC(=O)CSc2nc3ccccc3c3nc(CCN4CCCCC4)nn23)cc1OC	x	-1	43	118	i	0.92	100
CC(C)OCCCNC(=O)Cc1ccc(Br)cc1	x	-2	41	80	i	1.1	99
CC(=O)c1sc(N)c(C(=O)OC(C)C)c1C	-3.3	-1	3	178	i	0.89	100
O=C(CS(=O)(=O)Cc1ccccc1)Nc1ccc(Cl)cn1	-1.1	-13	44	92	i	0.79	96
CCc1ccc(C(=O)Nc2cc(C)ccc2F)s1	x	-4	x	x	i	0.97	104
Cc1oc(-c2cccc(Cl)c2)nc1CN1CCCC(C(=O)NCc2ccco2)C1 (centres undefined)	-1.6	-4	-36	117	i	0.89	99
Cc1c(N(C)C)nc2ccccc2c1N	-2.4	-1	0	92	i	1	102
CN(CC(=O)Nc1cccc(F)c1)CC(=O)Nc1ccc(Cl)cc1[N+](=O)[O-]	x	-4	8	119	i	0.87	111
Clc1ccccc1Cc1noc(CN2CCCCC2c2ccccn2)n1 (centres undefined)	x	-4	17	146	i	0.9	113
Clc1ccc(-c2nnc(CSc3nnc(-c4cccs4)o3)o2)cc1	-0.6	-8	-23	75	i	0.92	102
O=c1c2cc(N3CCOCC3)ccc2[nH]c(=S)n1Cc1ccccc1Cl	x	5	-86	66	i	0.64	103
O=C(NCc1ccon1)c1ccc(OC2CCN(CCc3ccccc3)CC2)cc1	x	2	52	118	i	0.88	112
CC(C(=O)NC1CCCC1)N(C(=O)c1ccc(-c2ccccc2)[nH]1)c1ccccc1F (centres undefined)	-0.6	-13	17	76	i	0.76	97
O=[n+]1c2c(n([O-])c3cc(Br)ccc31)CCC2	-1.1	-1	x	x	i	1	93
O=C(CNC(=O)c1ccc(S(=O)(=O)N2CCCC2)cc1)N/N=C/c1ccccc1	-0.7	-17	7	73	i	0.94	106
CCCOc1ccc(/C(O)=C2/C(=O)C(=O)N(CCN(C)C)C2c2ccc(O)c(OC)c2)cc1 (centres undefined)	-1.8	2	19	70	i	0.87	104
Cc1cccc(-n2c(C)cc(C(=O)NC3CCCCC3)c2C)c1	-0.2	0	2	114	i	0.94	102
Cc1nnc(NCc2ccco2)c2ccccc12	0.0	-1	x	x	i	0.82	109
COc1ccc(CN2C(=O)NC3(CCCCCC3)C2=O)cc1F	x	x	x	x	i	0.87	108
COc1cccc(-c2nnc(SCc3nc4ccccc4[nH]3)n2N)c1	-1.3	-8	-6	128	x	x	105
COc1ccc2cc(CN(Cc3cccs3)Cc3nnnn3Cc3ccccc3)c(=O)[nH]c2c1	1.4	-3	-5	122	i	0.74	102
CSc1nc(=NC(C)=O)ss1	0.4	3	-4	112	i	0.82	44
C/C(=N\Nc1nc(-c2ccc(C)cc2C)cs1)c1cc2ccccc2oc1=O	-1.3	5	x	x	i	0.99	98
COC(=O)c1cn(-c2ccccc2)nc1-c1cccnc1	-1.5	-3	21	120	i	0.88	76
O=C(N/N=C/C1CC2CCC1C2)c1ccc2c(c1)OCO2 (centres undefined)	0.1	0	0	113	i	0.85	105
CC(C)(C)c1nc(S(=O)(=O)c2ccc(Cl)cc2)c(N2CCOCC2)o1	-2.4	3	x	x	i	0.89	85
Nc1[nH]c(N=NC(=O)c2ccc(F)cc2)c2ccccc12	-1.2	2	-37	105	i	0.86	107
CC(C)=CC(=O)Nc1ccc(Br)cc1	-1.0	-7	22	90	i	1.1	99
O=C(CSc1cccc[n+]1[O-])Nc1cc(S(=O)(=O)N2CCOCC2)ccc1N1CCOCC1	-0.5	-9	6	59	i	0.99	148
O=C(Nc1ccccc1)Nc1ccccc1C(=O)NCc1ccco1	-2.1	-5	-12	105	i	0.99	97

Continued:
SMILES	GALR2 ag	PKD1 inh	INS promoter inh	INS promoter inh cell count	HSV replic up	HSV replic up primary fold	RGS16-Gao HTS
O=C(CCl)Nc1cn(-c2ccccc2)nc1-c1ccccc1	x	-4	7	76	i	0.78	111
Cn1c(O)c(/C=N/Nc2ccccc2)c(=O)n(C)c1=O	x	0	-55	133	i	1.1	112
CCN(CC)CC(C)OC(=O)COc1ccc(OC)cc1 (centres undefined)	-0.6	5	25	100	i	0.85	102
CCCCCCC[C@H](N)[C@H](O)C(=O)N(C)[C@@H](CCS(C)=O)C(=O)N[C@@H](Cc1ccc(O)cc1)C(=O)N[C@@H](Cc1ccc(O)cc1)C(=O)O (some centres undefined)	x	x	x	x	i	0.99	103
Cc1c(CNC2CCCC(C)C2C)c(C(=O)O)c(C)n1Cc1ccccc1 (centres undefined)	-1.0	-4	-42	89	i	0.95	108
CN1CCN(CC(=O)N/N=C/c2ccc(F)c(F)c2)CC1	0.6	1	-42	105	i	1	119
NC(=O)CC[C@H](NC(=O)c1ccc(F)cc1)C(=O)OCC(=O)Nc1ccc(N2CCOCC2)cc1	-0.2	-10	-23	108	i	0.96	112
COc1ncccc1-c1nnn(-c2ccccc2)n1	x	7	x	x	i	1.1	92
CCOC(=O)CSc1nc2sc3c(c2c(=O)[nH]1)CC(C)(CC)OC3 (centres undefined)	1.6	-14	21	106	i	0.81	103
CCOc1cc(/C=N/Nc2ccccc2Cl)ccc1OCC(=O)O	-3.5	-1	x	x	i	1.1	142
Clc1cccc(/C=N/Nc2nc(Cl)nc3ccccc23)c1	-0.3	-13	x	x	i	1	96
CC(=O)Nc1ccc(NC(=O)c2ccc(CSc3ccccc3)o2)cc1	x	1	82*	151*	i	0.79	109
COC(=O)c1c(SCC(=O)Nc2ccc(C)c(C)c2)nc(=O)[nH]c1C	x	x	x	x	i	0.86	102
COc1ccc(CCNC(=O)COC(=O)C2CCCCC2)cc1	-0.9	2	39	121	i	1	56
COc1ccccc1N1CCN(C(=O)CSc2nc3ccccc3o2)CC1	-1.6	5	-22	102	i	0.96	105
CS(=O)(=O)N(CC(=O)Nc1ccccc1C(=O)NCc1ccco1)c1ccc2c(c1)OCCO2	0.0	-2	x	x	i	0.94	97
COc1cccc(NC(=S)NCc2cccnc2)c1	-0.5	0	3	116	i	0.95	131
CCC(=O)C1=C(N2CCCC2)CC(C)(C)CC1=O	-1.0	-4	6	68	i	1	63
O=C(COC(=O)c1cc(-c2ccccc2Cl)nc2ccccc12)Nc1ncc(C(F)(F)F)cc1Cl	-1.8	-3	x	x	i	0.94	106
COc1ccc(N(CC(=O)Nc2ccc(C)c(C)c2)S(=O)(=O)c2c(C)n[nH]c2C)cc1	-0.7	-12	x	x	x	x	100
Cc1ccc(-n2ncc3c(=O)[nH]cnc32)c(C)c1	-0.8	-5	14	65	i	0.95	96
COC(=O)c1cc2ccsc2n1CC(=O)Nc1ccc(N(C)C)cc1	-1.0	-12	x	x	i	0.79	93
O=C(Oc1ccc2c(=O)c(Oc3ccc4ccccc4c3)coc2c1)c1cncc(Br)c1	-0.9	0	x	x	i	0.97	104
COc1ccc(C(=O)CSc2nc3cccnc3n2C)cc1	-1.0	-2	-15	131	i	0.97	102
COCCNc1nnc(SC(C)C(=O)Nc2ccc(-c3nc4ccc(C)cc4s3)cc2)s1 (centres undefined)	0.4	-8	x	x	i	0.95	85
O=C(COC(=O)Cc1ccsc1)NC1CCCCCC1	-2.7	-4	10	76	i	0.99	99

Pulled by structure from the list above (3):
SMILES	GALR2 ag	PKD1 inh	INS promoter inh	INS promoter inh cell count	HSV replic up	HSV replic up primary fold	RGS16-Gao HTS
O=C(Oc1ccc2c(=O)c(Oc3ccc4ccccc4c3)coc2c1)c1cncc(Br)c1	-0.9	0	x	x	i	0.97	104
O=C(COC(=O)Cc1ccsc1)NC1CCCCCC1	-2.7	-4	10	76	i	0.99	99
Cc1ccc(-n2ncc3c(=O)[nH]cnc32)c(C)c1	-0.8	-5	14	65	i	0.95	96
